From PubChem
ClpP mod: qHTS Assay for Activators of ClpP | hit rate 1.9% among 340,000 | purified B. subtilis ClpP, FRET peptide cleavage, 20 min | Potency, µM (highest dose often 57.5 µM), for inactives: top-dose activity change, negative = active | ATP-dependent Clp protease proteolytic subunit (Bacillus subtilis (strain 168)), P80244; active = well fitted falling curve with a large enough effect; inconclusive = small, poorly fitted or top-dose-only effect; inactive = no such curve, though single readings can be large or run the other way; further: potency means the concentration at half of the fitted maximal effect; the source files actives as falling curves though it sought activators and does not explain the sign; nearly all actives have a fitted effect of over 65% in size; many hits overshoot -100%
Target sequence (P80244 whole entry, looked up): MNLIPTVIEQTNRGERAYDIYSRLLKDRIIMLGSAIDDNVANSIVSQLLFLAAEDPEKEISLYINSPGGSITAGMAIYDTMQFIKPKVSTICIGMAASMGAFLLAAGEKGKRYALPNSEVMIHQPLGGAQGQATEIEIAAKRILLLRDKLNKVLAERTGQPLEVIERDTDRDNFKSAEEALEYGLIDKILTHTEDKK
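FRET quenching reversal measured ClpP activation: 10 microg/mL B. subtilis ClpP at pH 8 with the FRET-FV decapeptide, read at 430 nm after 320 nm excitation. The 20-min minus 0-min signal was scaled between DMSO/no-enzyme wells and ADEP (5.8 microM final).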
TRPML1 blocker: blocks the human TRPML1 channel; Q9GZU1; TRPML1-inducible cells, Ca2+ dye fluorescence, FDSS; stronger effect = lower value; inhibition of EC80 agonist-evoked calcium signal; activity change, negative = inhibition, % (test concentration not listed); hit rate 0.02% among 390,000; AID 624415; in the data active means activity change below about -50%; inconclusive means about -30% to -50%; inactive means above about -30%;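 further: stimulus is agonist 54-4 at its EC80 concentration; on the % scale 0 is the no-effect control and ±100 the full control effect; compound concentration not given in the record; the text of the record puts the active cut at -80%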
Target sequence (Q9GZU1 whole entry, looked up): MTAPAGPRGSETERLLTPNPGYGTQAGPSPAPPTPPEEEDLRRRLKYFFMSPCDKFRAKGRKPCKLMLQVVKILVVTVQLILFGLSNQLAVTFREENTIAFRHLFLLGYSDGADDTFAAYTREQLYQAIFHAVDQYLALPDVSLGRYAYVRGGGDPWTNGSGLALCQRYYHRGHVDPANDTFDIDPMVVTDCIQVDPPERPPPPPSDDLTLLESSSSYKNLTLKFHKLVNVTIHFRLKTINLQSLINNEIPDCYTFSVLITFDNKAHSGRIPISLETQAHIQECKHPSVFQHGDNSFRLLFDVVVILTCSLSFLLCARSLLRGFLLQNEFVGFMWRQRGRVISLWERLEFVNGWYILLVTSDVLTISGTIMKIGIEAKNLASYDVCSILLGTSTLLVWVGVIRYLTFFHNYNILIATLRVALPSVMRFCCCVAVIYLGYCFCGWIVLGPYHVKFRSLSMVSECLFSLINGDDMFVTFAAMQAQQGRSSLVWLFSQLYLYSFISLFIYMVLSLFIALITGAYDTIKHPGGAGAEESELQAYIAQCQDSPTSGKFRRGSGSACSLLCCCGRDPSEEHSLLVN
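Tet-induced TRPML1-DL cells loaded with Ca8 no-wash calcium dye were read kinetically on FDSS. Compound addition was followed by EC80 agonist 54-4 (4 uM final); inhibition was read over 110 s.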
* hit, by the source's call; ? = inconclusive. This is a subset; the hit share may differ from the screen's.

SMILES | ClpP mod | TRPML1 blocker
COc1ccc(CCN2C(=O)c3oc4ccc(F)cc4c(=O)c3C2c2ccc(C(C)(C)C)cc2)cc1 (stereo not drawn) | -2.3% | -15
COc1ccc(OC)c(NC(=O)CSc2nc3ccccc3c(=O)n2CCC(=O)NC2CCCCC2)c1 | 0.6% | -7
CC1CCCCN1C(=O)Cn1ncc2c3ccccc3n(Cc3ccccc3F)c2c1=O (stereo not drawn) | -14% | -9
CCc1ccccc1NC(=O)C(CC)Sc1ncnc2c1sc1ccccc12 (stereo not drawn) | -4.5% | -16
Cc1ccc(OCC(=O)OCc2cc(=O)n3c(C)csc3n2)cc1 | 8.8% | 1
CCOc1ccc(CC(=O)NCCc2sc3nc(-c4ccc(OC)cc4)nn3c2C)cc1 | 0.6% | 7
COc1ccc(NC(=O)CSc2nc(-c3cccs3)cc(C(F)(F)F)n2)cc1Cl | 28% | -2
Cc1ccc2oc3c(c(=O)c2c1)C(c1ccc(O)cc1)N(Cc1ccc2c(c1)OCO2)C3=O (stereo not drawn) | 1.1% | 1
Cc1ccc(Cl)cc1NC(=O)C(Cc1ccccc1)NS(=O)(=O)c1cccc2nsnc12 (stereo not drawn) | -1.1% | 22
CCOc1ccc(N(Cc2ccccc2)C(=O)c2nc(SCC)ncc2Cl)cc1 | -2.7% | 11
COc1ccc(C(=O)NCC(c2cccnc2)N2CCN(c3ccccc3)CC2)cc1 (stereo not drawn) | -1.2% | 3
Cc1cc(C)c2c(CC(=O)Nc3ccc(F)cc3)coc2c1 | 0.4% | 23
Brc1cccc(-c2nnc(CN3CCN(c4ccccn4)CC3)o2)c1 | 1.2% | 35
O=S(=O)(Nc1cccc(-c2ccc(N3CCCC3)nn2)c1)c1ccc(F)c(C(F)(F)F)c1 | -5.0% | -4
CCN(C(=O)Cn1c(=O)n(CCCS(=O)(=O)C2CCCCC2)c(=O)c2ccccc21)c1cccc(C)c1 | -2.5% | -6
Cc1c(-c2ccccc2)nc2c(Cl)cccc2c1C(=O)OCC(=O)c1ccc(F)cc1 | -0.5% | -4
COc1ccc(OC)c(CC2C(=O)Nc3ccc(Br)cc32)c1 (stereo not drawn) | 4.1% | 29
CCc1c(C)sc(NC(=O)c2cc(-c3ccc(OC)cc3)on2)c1C#N | -0.1% | 4
Cc1ccc(CCNC(=O)CCCn2c(=O)c3ccccc3n(CC(=O)Nc3cc(Cl)ccc3C)c2=O)cc1 | 0.9% | -8
CCOC(=O)c1cc2c(=O)n3ccccc3nc2n(Cc2ccco2)c1=NC(=O)c1ccc(OCC)cc1 | 4.3% | 7
O=c1[nH]c2ccc(NCc3ccc(-c4ccc(Cl)cc4)o3)cc2[nH]1 | 1.6% | 4
COc1cc(C(=O)n2nc(C)c(Sc3ccc(Cl)cc3)c2C)cc(OC)c1OC | ? | 6
Cc1ccc(NC(=O)Cn2c(=O)oc3cc(S(=O)(=O)NCc4ccccc4)ccc32)cc1 | 3.8% | 16
COc1ccc(-c2cc(C(=O)NCCc3ccccc3)c3c(-c4ccccc4)[nH]nc3n2)cc1 | 13µM* | 11
Cc1cccc(S(=O)(=O)NC(=O)C2(C)CCN2C(=O)CCC2CCCC2)c1 (stereo not drawn) | 0.1% | 20
Cc1ccc(C(C(=O)NC2CCCCC2)N(C)Cc2ccccc2)cc1 (stereo not drawn) | -1.1% | -21
Cc1ccc(Cl)cc1N1CCN(C(=O)c2cc3c(=O)oc4ccccc4c3s2)CC1 | -2.4% | 0
CCOC(=O)c1cccc(NC(=O)Cn2ncc3c(=O)oc4ccccc4c32)c1 | 1.2% | -6
CCOc1ccc(C(=O)Nc2cccc(NC(=O)c3ccc(C(C)(C)C)cc3)c2)cc1Br | -24% | 12
CN(C(=O)c1ccc2c(c1)N(Cc1cccc(Cl)c1)C(=O)c1ccccc1S2(=O)=O)C1CCCCC1 | -0.7% | -8
O=C(Cn1nc(-c2ccc(Cl)cc2)ccc1=O)NCc1ccccc1Cl | -3.2% | 15
COc1ccc(N2CCN(CCCNC(=O)Nc3ccccc3Cl)CC2)cc1 | -6.4% | -18
Cc1cccc(N2CCN(S(=O)(=O)c3ccc4oc(=O)c5ncn(C)c5c4c3)CC2)c1C | -1.4% | 6
CCOc1ccc(N(CC)C(=O)CCc2nc(-c3ccccc3F)no2)cc1 | 1.4% | -15
COCCN1C(=O)c2oc3ccc(C)cc3c(=O)c2C1c1ccc(C(=O)OC)cc1 (stereo not drawn) | 0.9% | 0
COc1ccc(C(=O)CC2(O)C(=O)N(CCc3ccccc3)c3ccc(Br)cc32)cc1OC (stereo not drawn) | -2.5% | -6
COc1cc(-c2cc3nc(NCCN(C)C)ccn3n2)cc(OC)c1OC | ? | 6
CCOc1ccc(NC(=O)CSC2=Nc3ccccc3C3=NC(CC(=O)NCc4ccc5c(c4)OCO5)C(=O)N23)cc1 (stereo not drawn) | -1.3% | -6
CCOC(=O)CSc1nc2cc3c(cc2c(=O)n1CCCCCC(=O)NCc1ccc(OC)cc1)OCO3 | -3.9% | 5
Cc1ccc(S(=O)(=O)N2C[C@H]3[C@H]4C(=O)N(C5CCCCC5)C(=O)[C@H]4CC(=O)[C@H]3[C@@H]2c2ccccc2Cl)cc1 | 0.5% | -10
CCOC(=O)c1c(C)[nH]c(C)c1S(=O)(=O)N1CCN(c2ccccc2OC)CC1 | -3.2% | -1
COc1ccc(-c2cc(C(F)(F)F)nc(NCc3ccccc3)n2)cc1 | 4.2% | 21
CCCC(=O)N1CCN(c2nc3c(OC)ccc(C)c3s2)CC1 | -1.1% | 10
CCN(Cc1ccccc1)Cc1c(O)ccc2c(=O)c(-c3ccc(Cl)cc3)c(C(F)(F)F)oc12 | -1.9% | 5
Brc1cccc(-c2nc3c4ccccc4ccn3c2Cc2ccsc2)c1 | -26% | 3
CC(=O)N1c2ccccc2C(=O)C1N1CCN(c2cccc(C)c2C)CC1 (stereo not drawn) | -20% | -24
CCn1cc(C(=O)NCCc2ccc(Cl)cc2)c(=O)c2cc(S(=O)(=O)N3CCOCC3)ccc21 | -3.4% | 27
Cc1ccccc1NC(=O)c1ccc2c(c1)c(C)c(C)n2Cc1ccccc1 | -11% | 34
Cn1c(=O)c2cc(C(=O)NC3CCCCCC3)sc2c2ccccc21 | ? | 2
O=C(CSc1ncc(-c2ccccc2)[nH]1)Nc1ccc(F)cc1F | -1.5% | 8

Later entries:
SMILES | ClpP mod | TRPML1 blocker
Cc1ccc(CNC(=O)c2cccc(Nc3nc4ccccc4n4nnnc34)c2)cc1 | -8.5% | -22
Cc1ccc(Cl)cc1-n1c(=O)cc(N2CCN(c3ccccc3)CC2)[nH]c1=O | -4.5% | -10
Cc1csc2nc(COC(=O)c3ccccc3NC(=O)c3ccc(F)cc3)cc(=O)n12 | -1.7% | -20
O=C(Cc1ccc(F)cc1)NCc1nc2cccnc2n1Cc1ccc(F)cc1 | 0.5% | -21
Cc1cc(F)ccc1NC(=O)CCS(=O)(=O)c1ccc2c(c1)CC(C)N2C(=O)C1CC1 (stereo not drawn) | -2.4% | -11
CCc1ccccc1NC(=O)Cn1c(=O)n(CCc2ccccc2)c(=O)c2ccccc21 | -12% | 3
Fc1ccc2[nH]c(-c3cccs3)cc2c1 | 11µM* | 2
Cc1ccc(NC(=O)CSc2nnc(C)s2)c(C)c1 | -2.4% | -5
COc1cc(-c2cc3n(C)c(C)c(CCC(=O)NCc4ccccc4)c(=O)n3n2)cc(OC)c1OC | -10% | 10
CC(Sc1nc2c([nH]c3ccccc32)c(=O)n1-c1ccccc1)c1ccccc1 (stereo not drawn) | -17% | -24
COc1cc(-c2nnc(SCCOc3ccccc3)o2)cc(OC)c1OC | -17% | -3
COc1ccc(-n2c(=O)c3ccc(C(=O)NCc4ccc(C)cc4)cc3n(Cc3cccc(Cl)c3)c2=O)cc1 | -2.4% | -5
COc1ccc(CCNC(=O)c2c(C)nn(-c3ccc(F)cc3)c2-n2cccc2)c(OC)c1OC | -1.0% | 4
COCCN(CCOC)Cc1cc(=O)oc2cc(C)c(Cl)cc12 | -14% | -15
COc1ccc(OC)c(NC(=O)CSc2c3c(nc4cc(Cl)ccc24)CCCC3)c1 | 0.2% | 0
COc1ccc(CCNC(=O)CSc2ncc3c(n2)-c2cc(Cl)ccc2N(Cc2ccccc2)S3(=O)=O)cc1OC | 5.1% | -14
Cc1cscc1-c1nc(NCC2CC2)nc2ccsc12 | 4.0% | 23
COc1ccc(NC(=O)Cn2c(=O)c3ccccc3n3nncc23)c(OC)c1 | -1.8% | 58
COc1ccc(-n2cc(-c3ccc4c(c3)OCO4)n(CC(=O)Nc3cccc(C)c3C)c2=O)c(OC)c1 | -23% | -11
COc1ccc(C2=C(C)C(=O)N(Cc3ccc(C(=O)NCc4ccccc4C)cc3)S2(=O)=O)cc1 | 4.2% | -1
CC(=O)Nc1ccc(NC(=O)C2CCCN(S(=O)(=O)c3ccc4c(c3)CCCC(=O)N4)C2)cc1 (stereo not drawn) | 1.1% | -8
Cc1nn2c(=O)cc(COc3ccc(/C=C(\C#N)C(=O)Nc4ccc(F)cc4)cc3)nc2s1 | 1.3% | -2
COc1ccccc1CNC(=O)C(=O)NCC(c1ccc2c(c1)OCO2)N1CCOCC1 (stereo not drawn) | 0.8% | 3
CCCc1nccn1S(=O)(=O)c1cc(Br)ccc1OC | -1.3% | 21
Cc1ccc(S(=O)(=O)c2nc(-c3cccs3)oc2SCC(=O)Nc2cc(C)cc(C)c2)cc1 | 140% | 14
Cc1ccc(-n2ncc3c(NCCC4=CCCCC4)ncnc32)cc1 | ? | 68
COc1ccccc1-c1nnc(SCCOc2ccccc2C)o1 | -26% | 4
CCC1CCCCN1CCCNC(=O)c1ccc2c(c1)N(Cc1cccc(Cl)c1)C(=O)c1ccccc1S2(=O)=O (stereo not drawn) | -2.8% | 12
CCOc1ccc(CCNC(=O)Cn2ccc3cc(S(=O)(=O)N4CCCCCC4)ccc32)cc1 | -11% | 26
O=S(=O)(NCCc1csc(-c2ccc(F)cc2)n1)c1ccc(Cl)cc1 | -13% | 0
CCCNC(=O)C1(C)CCN(C(=O)c2ccc3c(c2)CCO3)C1 (stereo not drawn) | -0.4% | -14
CCc1ccccc1NC(=O)Cn1nnc2sc3c(c2c1=O)CCC(C(C)(C)C)C3 (stereo not drawn) | -4.6% | 41
Cc1ccc(-c2nc(-c3cccs3)c(-c3cccs3)[nH]2)cc1 | ? | -10
Cc1ccc2oc(C(=O)Nc3ccc(S(=O)(=O)N(C)c4ccccc4)cc3)cc(=O)c2c1 | -2.4% | 12
CCn1c(=O)c2cc(C(=O)N(C)c3cc(C)ccc3C)sc2c2ccccc21 | -14% | 4
Cc1c(CCC(=O)NCc2cccc(Cl)c2)c(=O)oc2c(C)c(O)ccc12 | 4.7% | 3
COc1ccccc1N(CC(=O)Nc1ccccc1F)S(C)(=O)=O | 1.9% | 2
CCOc1ccccc1NC(=O)CSc1nc2c(oc3ccccc32)c(=O)n1C(C)C | 1.0% | -5
CCOC(=O)c1ccccc1NC(=O)CN1C(=O)CC(c2ccccc2)Sc2ccccc21 (stereo not drawn) | ? | 12
CCc1ccc(NC(=O)C2CCN(c3nnc(-n4c(C)ccc4C)s3)CC2)cc1 | -3.7% | 4

3 records picked at random from those above, as already listed:
SMILES | ClpP mod | TRPML1 blocker
Cc1c(CCC(=O)NCc2cccc(Cl)c2)c(=O)oc2c(C)c(O)ccc12 | 4.7% | 3
CCOC(=O)c1ccccc1NC(=O)CN1C(=O)CC(c2ccccc2)Sc2ccccc21 (stereo not drawn) | ? | 12
CCc1ccccc1NC(=O)Cn1nnc2sc3c(c2c1=O)CCC(C(C)(C)C)C3 (stereo not drawn) | -4.6% | 41

More records
SMILES | ClpP mod | TRPML1 blocker
Cc1ccc(CNC(=O)CSc2ccc(-c3sc(-c4ccccc4)nc3C)nn2)cc1 | -3.4% | -9
CC1CCc2c(sc3nc(-c4cc5ccccc5oc4=O)nc(Cl)c23)C1 (stereo not drawn) | 3.5% | 0
CCOC(=O)c1c(C)[nH]c(C)c1S(=O)(=O)N1CCC(C(=O)NCc2cccc(OC)c2)CC1 | -0.1% | -16
CCc1ccc(N(CC)C(=O)CCn2cnc3onc(-c4ccc(F)cc4)c3c2=O)cc1 | 0.4% | -11

In the list so far, ten contain two or more sulfur atoms.
SMILES | ClpP mod | TRPML1 blocker
CCc1ccccc1NC(=O)C(CC)Sc1ncnc2c1sc1ccccc12 (stereo not drawn) | -4.5% | -16
COc1ccc(NC(=O)CSc2nc(-c3cccs3)cc(C(F)(F)F)n2)cc1Cl | 28% | -2
Cc1ccc(Cl)cc1NC(=O)C(Cc1ccccc1)NS(=O)(=O)c1cccc2nsnc12 (stereo not drawn) | -1.1% | 22
Cc1ccc(NC(=O)CSc2nnc(C)s2)c(C)c1 | -2.4% | -5
COc1ccc(CCNC(=O)CSc2ncc3c(n2)-c2cc(Cl)ccc2N(Cc2ccccc2)S3(=O)=O)cc1OC | 5.1% | -14
Cc1cscc1-c1nc(NCC2CC2)nc2ccsc12 | 4.0% | 23
Cc1ccc(S(=O)(=O)c2nc(-c3cccs3)oc2SCC(=O)Nc2cc(C)cc(C)c2)cc1 | 140% | 14
O=S(=O)(NCCc1csc(-c2ccc(F)cc2)n1)c1ccc(Cl)cc1 | -13% | 0
Cc1ccc(-c2nc(-c3cccs3)c(-c3cccs3)[nH]2)cc1 | ? | -10
Cc1ccc(CNC(=O)CSc2ccc(-c3sc(-c4ccccc4)nc3C)nn2)cc1 | -3.4% | -9
